Screening data as filed in PubChem BioAssay.
CSC inhib: cancer stem cell inhibition; cancer stem cell-like cells viability, luminescence; inhibition, % at 7.5 µM; 300,000 compounds, 1.1% hits; AID 2717;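 active means mean at 75% or more and at least half the replicates too; tested in HMLE shEcad cells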;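 further: 0% = median of negative and 100% = median of positive control wells; the first replicate is given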
Env fusion inh: blocks HIV Env-driven cell-cell fusion | inhibition, % at 12.3 µM | 360,000 compounds, 1.1% hits | HeLa-JRFL Env/CEM21 cell fusion, luciferase;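 active means mean replicate inhibition score of at least 50 and every replicate individually at or above 50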;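 further: 0% = plate neutral controls and 100% = maraviroc near 300 nM; one replicate is shown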
UUG fidelity: alters start codon recognition fidelity in yeast; activity score, % at 18.7 µM; 350,000 compounds, 0.13% hits; S. cerevisiae UUG-firefly luciferase reporter, luminescence/redox ratio;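 active means replicate mean at a twofold rise or more, about +100% in these data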;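 further: firefly luciferase made from a UUG start codon reports start codon fidelity; reporter light over untreated wells divided by growth signal over untreated wells; some hits fall short of that in this replicate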
Rce1 inhib: inhibitors of yeast Ras-converting enzyme | Q03530 | yeast membranes, quenched prenylated peptide cleavage fluorescence | calls only | 290,000 compounds, 0.27% hits | AID 2563;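 active means fall in fluorescence gain of 50% or more versus controls, with final raw signal at or below 3038400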;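 further: plate controls were neutral control wells for no effect and wells lacking membranes for full effect; tested at 10 µM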
Target sequence (Q03530 whole entry, looked up): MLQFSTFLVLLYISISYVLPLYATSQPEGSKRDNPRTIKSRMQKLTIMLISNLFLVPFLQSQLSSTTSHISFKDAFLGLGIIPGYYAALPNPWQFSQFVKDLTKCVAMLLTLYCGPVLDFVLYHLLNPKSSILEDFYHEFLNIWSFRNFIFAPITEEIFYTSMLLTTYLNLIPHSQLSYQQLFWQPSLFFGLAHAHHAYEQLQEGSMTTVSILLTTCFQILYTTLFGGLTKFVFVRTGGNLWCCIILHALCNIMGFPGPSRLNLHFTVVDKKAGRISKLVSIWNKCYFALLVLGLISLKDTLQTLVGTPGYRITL
PABP FP inh: blocks human PABP binding to poly(A) RNA; AID 2014; fluorescence polarization; P11940; inhibition, % at 35 µM; 290,000 compounds, 1% hits;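 active means 50% or more with normal probe brightness, or confirmed in later tests; about a fifth of its hits are not listed in these tables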;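 further: calls also rest on retests at 20 µM and on dose response follow-up; controls were probe without protein and protein plus probe with vehicle; some compounds called inactive have numbers as strong as hits; many hits fall short of the cut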
MT1-MMP act inh: blocks activation of human MT1-MMP | 360,000 compounds, 0.061% hits | GFP/RFP ratio change, % at 20 µM | P50281 | HT1080 RFP-PRO-GFP cells, GFP/RFP ratio fluorescence, overnight; percent of plate control window, DMSO zero;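 active means GFP/RFP ratio change of at least 30% with cell ATP level not reduced by more than half and red fluorescence within 50% of control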; further: strong numbers were not always called active
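Assay system: HT1080 RFP-PRO-GFP cells. Benchmarks: DMSO vehicle wells and RFP-L50D-GFP reporter cell wells. Times: overnight cell settling, then overnight compound exposure, 37 °C, 5% CO2. Compound: 20 µM single dose, 1% DMSO. Read-out basis: GFP/RFP fluorescence ratio.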
eIF4H inh: inhibitors of RNA binding by human eIF4H; inhibition, % at 35 µM; 290,000 compounds, 0.94% hits; eIF4H fluorescence polarization binding assay;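 active means 50% or more with normal probe brightness, or confirmed in later tests; about a fifth of its hits are not listed in these tables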;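 further: calls also rest on retests at 20 µM and on dose response follow-up; 0% = protein and probe with vehicle and 100% = probe without protein; strong numbers were not always called active; many hits fall short of the cut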
eIF4H inh retest: second read-out of eIF4H inh, no call of its own (marks repeat the call); inhibition, %; compound at 20 µM; confirmation average;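 mean of two retest wells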
PABP FP inh retest: also measured in PABP FP inh; calls as there; inhibition, %; compound at 20 µM; confirmation repeats;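 mean of two retest wells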
MT1-MMP act inh RFP: also measured in MT1-MMP act inh; calls as there; RFP signal change, %; measured here: RFP expression control read;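 0 = vehicle wells; hits needed this value within 50% of zero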
Active calls of the source: *; i = inactive; x = not tested or not shown. A portion of the library; the hit share may differ from the screen's.

SMILES | CSC inhib | Env fusion inh | UUG fidelity | Rce1 inhib | PABP FP inh | MT1-MMP act inh | MT1-MMP act inh RFP | eIF4H inh | others
COc1cc(S(=O)(=O)N2CCN=C2c2ccccc2)ccc1Cl | -3 | -21 | -15 | i | 31 | 2 | -1 | 3
Cc1cccc(NC(=O)CCC2CCN(C(=O)C3CC=CCC3)CC2)c1 (configuration not stated) | 0 | x | -2 | i | 8 | 2 | -1 | -5
CC1Cn2c(nnc2-c2cccc(Cl)c2)S1 (configuration not stated) | x | -18 | -11 | i | -10 | 1 | 3 | 0
CSc1nsc(SCC(=O)N2CCCc3ccccc32)n1 | -20 | x | -9 | i | -6 | -1 | -1 | -7
CCCCN(C(=O)COC(=O)COc1c(C)cc(C)cc1C)c1c(N)n(CCC)c(=O)[nH]c1=O | -14 | -3 | x | i | x | -1 | 4 | x
COc1ccccc1C(=O)N1CCN=C1SC | -6 | x | 15 | i | -3 | 6 | 0 | 5
CCN1CCN(S(=O)(=O)c2ccc(C)c([N+](=O)[O-])c2)CC1 | -4 | -10 | 5 | i | 5 | 0 | 6 | 6
CC(C)c1ccc(CNC(=O)CCc2ccccc2)cc1 | -10 | 17 | x | x | 4 | 1 | -2 | 10
CCOC(=O)c1c(-c2ccc(C)o2)csc1NC(=O)CN1CCN(CC)CC1 | 0 | x | -5 | i | 4 | 3 | 5 | -6
CCCCCN(C(=O)CCC(=O)OCCOc1cccc(C)c1)c1c(N)n(CCCC)c(=O)[nH]c1=O | -7 | x | -24 | x | x | -10 | -7 | x
C#CCOC(=O)c1ccc(-n2cncn2)nc1 | 0 | -42 | -19 | i | 4 | -7 | 0 | 0
Cc1cccc(N(CC(=O)N2CCCC2)S(=O)(=O)c2ccccc2)c1 | -10 | -57 | -11 | i | 5 | 0 | 0 | -13
C[C@H]1CN([C@@H](C)CO)C(=O)CCCn2cc(nn2)CO[C@@H]1CN(C)C(=O)Nc1cccc(F)c1 | x | 10 | -1 | x | x | -1 | -1 | x
O=C(CCSc1ccc(Cl)cc1)N1CCN(c2ccc(O)cc2)CC1 | 106* | 29 | x | i | 0 | -2 | -12 | -7
C=CCNc1nnnc2c1sc1nc(N3CCOCC3)c3c(c12)CCCC3 | 14 | -73 | x | i | -1 | 6 | -1 | 4
C/C(=N/Nc1ccc(F)cc1)c1ccc(Cl)s1 | 0 | -1 | x | i | -4 | -5 | 1 | 2
C=CCN(CC=C)S(=O)(=O)c1ccc(C(=O)Nc2nnc(COC)o2)cc1 | 16 | -5 | x | i | 0 | 2 | 4 | 13
Cc1c(NC(=S)N/N=C/c2cc([N+](=O)[O-])ccc2O)c(=O)n(-c2ccccc2)n1C | 4 | 29 | -29 | i | 12 | 1 | -4 | 49
C=CCOc1ccc(C2NC(=O)c3ccccc3O2)cc1OCC (configuration not stated) | -5 | -27 | -11 | i | 2 | -9 | -4 | -8
CCN1CCN(C(CNS(=O)(=O)c2ccccc2)c2cccnc2)CC1 (configuration not stated) | 2 | -4 | -20 | i | 2 | -1 | 3 | -5
C#CCOCCOCCOCCNc1nc(N2CCN(C(=O)[C@H](CCCCN)n3cc([C@@H](N)CC(C)C)nn3)CC2)nc(N2CCN(C(=O)[C@H](CCCCN)n3cc([C@@H](N)CC(C)C)nn3)CC2)n1 | 7 | x | 39 | i | 69 | -2 | 8 | 64 | eIF4H inh retest=10;PABP FP inh retest=6
COc1ccc(C(=O)Cn2c(C)nc([N+](=O)[O-])c2Br)cc1 | 6 | 22 | x | i | 2 | 2 | -11 | -10
O=C1c2ccccc2C(=O)N1Cc1ccccc1F | 4 | -6 | -7 | i | 6 | 1 | 3 | -6
CCC(=O)Nc1ccc(S(=O)(=O)Nc2ccc(Cl)nn2)cc1 | 1 | 13 | x | i | 11 | 2 | 9 | -4

Gathered by group, the compounds so far with an NH in an aromatic ring (two)
SMILES | CSC inhib | Env fusion inh | UUG fidelity | Rce1 inhib | PABP FP inh | MT1-MMP act inh | MT1-MMP act inh RFP | eIF4H inh | others
CCCCN(C(=O)COC(=O)COc1c(C)cc(C)cc1C)c1c(N)n(CCC)c(=O)[nH]c1=O | -14 | -3 | x | i | x | -1 | 4 | x
CCCCCN(C(=O)CCC(=O)OCCOc1cccc(C)c1)c1c(N)n(CCCC)c(=O)[nH]c1=O | -7 | x | -24 | x | x | -10 | -7 | x

Nothing new here: 4 of the compounds above.
SMILES | CSC inhib | Env fusion inh | UUG fidelity | Rce1 inhib | PABP FP inh | MT1-MMP act inh | MT1-MMP act inh RFP | eIF4H inh | others
COc1cc(S(=O)(=O)N2CCN=C2c2ccccc2)ccc1Cl | -3 | -21 | -15 | i | 31 | 2 | -1 | 3
Cc1cccc(NC(=O)CCC2CCN(C(=O)C3CC=CCC3)CC2)c1 (configuration not stated) | 0 | x | -2 | i | 8 | 2 | -1 | -5
CC1Cn2c(nnc2-c2cccc(Cl)c2)S1 (configuration not stated) | x | -18 | -11 | i | -10 | 1 | 3 | 0
CSc1nsc(SCC(=O)N2CCCc3ccccc32)n1 | -20 | x | -9 | i | -6 | -1 | -1 | -7

Going on with the list.
SMILES | CSC inhib | Env fusion inh | UUG fidelity | Rce1 inhib | PABP FP inh | MT1-MMP act inh | MT1-MMP act inh RFP | eIF4H inh | others
CCC(Oc1ccccc1)C(=O)N1CC(C)CC(C)C1 (configuration not stated) | x | 3 | -16 | i | -4 | 2 | 1 | -2
CCOC(=O)C1(Cc2cccc(Cl)c2)CCCN(C(=O)c2cccnc2)C1 (configuration not stated) | 3 | 23 | x | i | -2 | 2 | 3 | -7
COC(C(=O)Nc1ccnn1C1CCN(Cc2ccc(CO)o2)CC1)c1ccccc1 (configuration not stated) | -5 | x | -12 | i | 4 | -1 | 0 | -11
Clc1ccc(/C=N/Nc2ncnc3nc[nH]c23)cc1 | -2 | -10 | -4 | i | 15 | 11 | 5 | -9
Clc1ccc(CNc2ccc(CNc3ncn[nH]3)cc2)cc1 | 15 | x | -19 | i | 10 | 0 | -5 | -8
COc1ccc(NC(=O)N(C)C[C@H]2Oc3ccc(NS(=O)(=O)c4c(C)noc4C)cc3C(=O)N([C@H](C)CO)C[C@@H]2C)cc1 | -11 | 21 | -1 | x | x | 0 | 5 | x
O=C(O)c1nc(N2CCCCC2)ncc1Cl | 5 | -25 | -12 | i | 1 | 3 | -7 | -6
CC12CCC(=O)N1C(C(=O)Nc1cccc(S(=O)(=O)N3CCCCCC3)c1)CS2 (configuration not stated) | -5 | x | 2 | i | x | 3 | -3 | x
O=C(NCc1ccccc1)c1ccc(CS(=O)(=O)c2ccc(Br)cc2)o1 | -1 | -1 | -31 | i | -1 | 1 | -4 | -12
COc1ccc(N(CC(=O)N2CCN(c3ccccc3)CC2)S(=O)(=O)c2ccc(C)cc2)cc1 | 1 | -8 | 1 | i | 3 | 0 | 1 | 5
COCCN(C(=O)COC(=O)c1cccs1)c1c(N)n(Cc2ccccc2)c(=O)[nH]c1=O | -9 | 2 | 3 | i | -4 | -1 | 3 | -3
O=[N+]([O-])c1ccccc1S(=O)(=O)n1nnc2ccccc21 | -18 | 4 | -8 | i | -2 | 1 | 4 | -2
O=C(COc1ccc(S(=O)(=O)NC2CCCCC2)cc1)NCCC1=CCCCC1 | -5 | x | -13 | i | -26 | -6 | -12 | 4
O=C(c1ccc(-c2ccccc2)cc1)N1CCN(Cc2ccccn2)CC1 | x | x | -20 | x | 5 | 9 | 2 | -6
CCOC(=O)Cn1c(=O)oc2cc(S(=O)(=O)N3CCN(C(=O)c4ccco4)CC3)ccc21 | 5 | x | x | i | -4 | -4 | -2 | -4
CCOC(=O)Cc1c(C)nc2cc(-c3ccc(Cl)cc3)[nH]n2c1=O | 11 | -36 | x | i | 6 | -2 | -4 | -6
COc1ccc2oc(=O)c(C(=O)N3CCc4ccccc43)cc2c1 | 16 | -20 | -13 | i | 1 | 0 | 0 | 3
O=C(NCCc1ccccc1)C1CCN(S(=O)(=O)c2cccc3nsnc23)CC1 | -26 | -27 | 24 | i | -6 | -4 | 1 | -2
Cc1ccccc1OCC(O)Cn1c(NCCN(C)C)nc2c1c(=O)n(C)c(=O)n2C (configuration not stated) | -10 | -8 | -13 | i | -15 | -3 | 2 | 7
CCOC(=O)c1c(CSc2ccc(C)cc2)oc2ccc(O)cc12 | 135* | 23 | -19 | i | 3 | -1 | -9 | -8
CCOC(=O)C(Cc1ccccc1)C(=O)Nc1ccccc1C (configuration not stated) | -11 | -3 | 5 | i | 0 | -5 | -1 | 2
O=C(CC1CCCCC1)NCc1ccc(F)cc1 | x | -1 | -26 | i | 32 | -7 | -10 | -1
CCC(C)(C)N=C(NC#N)Nc1cccnc1 | 6 | x | x | i | 2 | x | x | 0
CCC(C)NC(=O)C1c2ccccc2C(=O)N1Cc1cc(OC)ccc1OC (configuration not stated) | 6 | -209 | -10 | i | 0 | 1 | 4 | -2
CCOc1cc(C)c(S(=O)(=O)Nc2ccc(F)cc2)cc1C | 68 | 40 | 5 | i | -11 | 2 | -11 | -11
Cc1cc(C)cc(NC(=S)N2CCC(N(C)CC3CCCO3)CC2)c1 (configuration not stated) | 9 | 16 | -29 | i | -9 | 0 | 2 | 1
Cc1cccc(OCC(=O)NNC(=O)Cn2c(=O)cnc3ccccc32)c1 | -12 | -1 | -5 | i | x | 3 | -1 | x
Cc1ccc(CN(C)C(=O)CC2C(=O)NCCN2CC2CCCCC2)cc1 (configuration not stated) | -8 | -14 | x | i | -6 | 2 | 3 | 6
Cc1nc2ncnn2c(C)c1CCC(=O)Oc1ccccc1 | 11 | -19 | -18 | i | 5 | 4 | 0 | 0
CSc1ccc(C2Nc3ccccc3-c3cc(C)nn32)cc1 (configuration not stated) | 18 | -103 | -30 | i | 0 | 5 | -2 | -4
C=CCn1c(NCc2cc(C)ccc2O)nc2ccccc21 | 1 | 11 | -18 | i | 0 | 3 | -7 | -10
O=C(O)CC(C(=O)Nc1ccc(Cl)cc1)N1CCCCCC1 (configuration not stated) | -15 | 7 | -13 | i | 1 | 1 | 3 | -5
O=C(CSCC(=O)NC1CCCC1)Nc1ccccc1 | -4 | -3 | x | i | 2 | -4 | 2 | -2
COc1cccc(NC(=O)N2CCCCCC2)c1 | -11 | -7 | 12 | i | -10 | -1 | 1 | -8
Cc1cccc2sc(NC(=O)Cn3c(C)csc3=O)nc12 | x | 12 | -3 | x | x | 2 | -1 | x
O=c1oc2ccccc2c(N2CCCC2)c1CN1CCCC1 | 9 | x | -15 | i | 4 | 0 | 0 | 4
O=C(NCc1ccco1)c1cc2n(n1)C(C(F)(F)F)CC(c1ccc(Br)cc1)N2 (configuration not stated) | 11 | -26 | -24 | i | -1 | 7 | 0 | -10
COc1cc(/C=C/c2nc(-c3ccccc3O)n[nH]2)cc(OC)c1OC | 51 | 29 | x | i | 0 | 0 | -18 | -2
COC(C(=O)Nc1ccnn1C1CCN(C(=O)c2ccc(C)cc2)CC1)c1ccccc1 (configuration not stated) | 5 | 2 | 7 | i | 2 | -5 | 1 | -8
CN(Cc1cnn(C)c1)C(=O)c1ccc(OC2CCN(CCc3ccccc3)CC2)cc1 | -8 | -1 | x | i | -6 | 1 | 1 | -7
Cc1ccc(-c2nc(N=Nc3ccc(O)cc3)n[nH]2)cc1 | 16 | x | x | i | 0 | 3 | -10 | 22
COc1ccccc1-n1c(C)c(C(=O)O)c2cc(OC)c3ccccc3c21 | 4 | 12 | 5 | i | 12 | 1 | 2 | 21
CCc1ccc(CN(C(=O)COc2c(C)cccc2C)C2CCS(=O)(=O)C2)cc1 (configuration not stated) | -3 | 7 | -8 | i | 8 | -4 | -1 | -15
O=C(COC(=O)C1CCN(c2ccc(C(F)(F)F)cn2)CC1)c1cccc(Br)c1 | -6 | -7 | x | i | x | 1 | 2 | x
COc1cc(C(=O)NCCC(=O)NCc2ccc3c(c2)OCO3)cc(OC)c1OC | 1 | -150 | -12 | i | -12 | 1 | -1 | 3
